gsp antag: antagonizes gsp, the McCune-Albright syndrome mutation | gsp-mutant cells, cAMP HTRF, 30 min; control for the full effect not named in the record | 340,000 compounds, 0.4% hits | Potency, µM (titrated, usually from 76.9 µM), inactives show at the top dose activity change, negative = inhibition, actives largely listed as inhibitors | AID 624288; active = falling curve of any shape with a large fitted effect; inconclusive = falling curve, mostly with a smaller effect; inactive = flat or rising curve; cell line not stated here;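 also: intracellular cAMP measured with PDE inhibitor Ro 20-1724 present during compound exposure; potency is read from the fitted curve at half-maximal effect; % is scaled to controls: 0 for no effect and ±100 for the full control effect; nearly all actives have a fitted effect of over 65% in size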
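Cells, 2000/well, grown 16–24 h in DMEM 10% FBS with 0.5 mg/ml G418, then compounds plus […] (300 uM addition stock), 30 min at 37C. cAMP read by HTRF (cAMP-d2 and anti-cAMP antibody-K in lysis buffer) after 30 min RT.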
TRPML1 blocker: blocks the human TRPML1 channel; Q9GZU1; TRPML1-inducible cells, Ca2+ dye fluorescence, FDSS; stronger effect = lower value; inhibition of EC80 agonist-evoked calcium signal; 390,000 compounds, 0.02% hits; activity change, negative = inhibition, % (test concentration not listed); in the data active means activity change below about -50%; inconclusive means about -30% to -50%; inactive means above about -30%;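 also: stimulus is agonist 54-4 at its EC80 concentration; % is scaled to controls: 0 for no effect and ±100 for the full control effect; compound concentration not given in the record; the text of the record puts the active cut at -80%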
Target sequence (Q9GZU1 whole entry, looked up): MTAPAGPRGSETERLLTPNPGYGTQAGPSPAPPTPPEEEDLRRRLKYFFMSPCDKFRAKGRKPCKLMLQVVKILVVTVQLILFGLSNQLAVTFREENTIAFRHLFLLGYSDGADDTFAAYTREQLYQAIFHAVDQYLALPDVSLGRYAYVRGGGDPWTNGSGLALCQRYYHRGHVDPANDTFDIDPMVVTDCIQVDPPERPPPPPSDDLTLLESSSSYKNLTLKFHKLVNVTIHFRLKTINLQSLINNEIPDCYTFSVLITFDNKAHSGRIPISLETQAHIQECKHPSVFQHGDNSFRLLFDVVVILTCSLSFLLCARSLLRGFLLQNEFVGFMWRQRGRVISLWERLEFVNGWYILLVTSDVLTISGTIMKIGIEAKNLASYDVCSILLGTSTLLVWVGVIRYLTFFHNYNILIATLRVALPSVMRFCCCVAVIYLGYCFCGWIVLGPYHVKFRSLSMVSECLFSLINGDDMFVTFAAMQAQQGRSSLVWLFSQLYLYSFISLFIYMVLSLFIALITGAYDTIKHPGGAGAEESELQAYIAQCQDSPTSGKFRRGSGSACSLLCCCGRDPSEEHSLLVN
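Tet-induced TRPML1-DL cells loaded with Ca8 no-wash calcium dye were read kinetically on FDSS. Compound addition was followed by EC80 agonist 54-4 (4 uM final); inhibition was read over 110 s.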
gsp agonist: activates gsp, the McCune-Albright syndrome mutation; gsp mutant cells, cAMP HTRF, 30 min; control for the full effect not named in the record; Potency, µM (series often up to 76.9 µM), for inactives: at the highest dose activation (cAMP increase), hits mostly activators; 340,000 compounds, 0.13% hits; AID 624287; active = well fitted activation curve with a large enough effect; inconclusive = small, poorly fitted or top-dose-only effect, or another doubt; inactive = no such curve, though single readings can be large or run the other way; cell line not stated here;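 also: phosphodiesterase inhibitor Ro 20-1724 added with compounds to block cAMP breakdown; potency is read from the fitted curve at half-maximal effect; nearly all actives have a fitted effect of over 60% in size; about a fifth of the inactives were tested at one dose only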
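Cells in DMEM/10% FBS with G418 were pretreated with compounds in DMSO plus […] (300 uM stock) for 30 min at 37C. cAMP was measured by HTRF (cAMP-d2 plus anti-cAMP antibody-K) after 30 min at room temperature.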
TRPML1 ag: agonists of human TRPML1 channel; TRPML1-expressing cells, Ca2+ dye fluorescence, FDSS; host cell line not named in the record; reference of the full effect not given here; activation, % (no concentration beside the values); AID 624414; 410,000 compounds, 0.12% hits; Q9GZU1; in the data active = activation above about 50%; inconclusive = about 30% to 50%; inactive = below about 30%; also: 0% is about no effect; the text of the record puts the active cut at 80%
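Cells: TRPML1-DL, 1X Tet inducer, ~16 h at 37 degrees C/5% CO2. Dye: ABD Ca8 no-wash + quencher, 45-90 min RT. Read: 10 s baseline, compound add, 110 s agonist phase; 54-4 EC80 (4uM final), 110 s antagonist phase.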
ClpP mod: qHTS Assay for Activators of ClpP; 340,000 compounds, 1.9% hits; purified B. subtilis ClpP, FRET peptide cleavage, 20 min; ATP-dependent Clp protease proteolytic subunit (Bacillus subtilis (strain 168)), P80244; Potency, µM (highest dose often 57.5 µM), inactives show at the top dose activity change, negative = active; AID 651965, 2013; active = well fitted falling curve with a large enough effect; inconclusive = small, poorly fitted or top-dose-only effect; inactive = no such curve, though single readings can be large or run the other way; also: potency is read from the fitted curve at half-maximal effect; the source files actives as falling curves though it sought activators and does not explain the sign; nearly all actives have a fitted effect of over 65% in size; many hits overshoot -100%
Target sequence (P80244 whole entry, looked up): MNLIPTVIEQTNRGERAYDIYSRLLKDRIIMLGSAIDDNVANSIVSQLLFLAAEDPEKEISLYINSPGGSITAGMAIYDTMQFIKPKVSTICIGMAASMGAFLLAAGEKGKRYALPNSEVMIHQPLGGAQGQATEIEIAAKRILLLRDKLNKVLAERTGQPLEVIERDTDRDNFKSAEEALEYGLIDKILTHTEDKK
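ClpP 10 microg/mL final, pH 8 Tris/KCl buffer with BSA, glycerol, Tween-20; compound pinned in; FRET-FV substrate; RT 20 min; Ex320/Em430; ΔFRET vs ADEP 5.8 microM, DMSO, no enzyme.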
Menin-MLL FL inh: menin-MLL binding inhibition, fluorescein peptide; FP activity change, % at 61.4 µM; Fluorescence polarization, fluorescein-MLL peptide displacement from menin; 290,000 tested, under 10 active; inconclusive = falling polarisation curve, or a change in total fluorescence; inactive = total fluorescence flat and polarisation flat or rising; no compound was filed as active; the % refers to the polarisation; negative = inhibition;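 also: % of control where 0% means no effect; inhibitors lower the polarisation; unlabelled MLL peptide was the positive control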
Starred values were filed as active, the others as inactive; ? = inconclusive; . = no result given; & = joins results of further samples; [ ] = dose if it differs, or a comment.

SMILES	gsp antag	TRPML1 blocker	gsp agonist	TRPML1 ag	ClpP mod	Menin-MLL FL inh
Cc1ccc(C(=O)NCc2ccc3c(c2)OCO3)c(Cl)c1	.	-3	-19%	-0.5	-0.7%	.
CC1(C)C(=O)N(CC(=O)Nc2cccc(F)c2)c2ccc(S(=O)(=O)N3CCCCC3)cc21	.	6	.	0.5	0.8%	.
CSc1ccccc1-c1nnc(-c2ccc(C)cc2)o1	-12%	31	-4%	3.6	-27%	0.5
CC1CCCN(CCC(=O)Nc2ccc3c(c2)CCC3)C1 (centres undefined)	9%	0	4%	-0.5	-1.1%	-1.7
OCC[C@@H]1C[C@@H](O)[C@H](O)[C@@]2(Cc3ccccc3O2)O1	11%	-4	-2%	0.1	1.7%	2.2
CS/C(=C\[N+](=O)[O-])Nc1ccc(F)cc1	35%	-5	-41%[inhibitor]	-0.7	0.2%	0.6
CCOC(=O)c1ccc(NC(=O)Nc2c[nH]c(=O)[nH]c2=O)cc1	.	-28	.	2.1	-3.6%	.
COc1cccc(C2CC(c3cccc(OC)c3)n3nc(N)nc3N2)c1 (centres undefined)	3%	-6	3%	0.3	-5.0%	-1.2
COc1ccccc1CN1CC(C(=O)N2CCC(C(=O)c3ccccc3)CC2)CCC1=O (centres undefined)	-18%	2	2%	3.2	0.5%	.
Cc1cccc(NCc2nnc(-c3ccccc3)o2)c1C	-16%	-9	3%[15.4 µM]	1.4	-0.6%	1.1
CC(C)C[C@@H](CNCC(=O)[C@H](CC(=O)O)NC(=O)c1[nH]cnc1C(=O)N[C@H](CN)CC(C)C)NC(=O)c1nc[nH]c1C(=O)N[C@@H](Cc1ccccc1)C(=O)O	5%	11	.	-0.8	0.7%	.
Cc1ccc(-c2nnc(CSc3nnc(COc4ccccc4)n3-c3ccccc3)o2)cc1	-28%	3	9%	3.7	1.5%	6.1
O=C(Nc1ccc(F)cc1F)c1ccc2c(=O)n3c(nc2c1)CCCCC3	.	3	.	1.6	-6.9%	.
Cc1ccc(NC(=O)Cc2nc(COC(=O)c3c(F)cccc3Cl)cs2)cc1	-17%	-6	23%[15.4 µM]	1.8	.	.
Cc1cc(C)cc(NC(=O)Cn2c(=O)n(CCC(C)C)c(=O)c3cccnc32)c1	.	38	.	-0.7	-12%	.
CCCCOC(=O)c1ccc(N/C(=N\S(=O)(=O)c2ccccc2)c2ccccc2)cc1	?	-12	17%[15.4 µM]	-0.5	0.1%	1.3
Cn1c(N)c(-c2ccccc2)c2ccc([N+](=O)[O-])cc2c1=O	?	-3	6%	83*	.	?
O=C(COC(=O)c1cccnc1)Nc1ccc2c(c1)OCO2	-2%	-16	?	1.0	1.5%	-1.6
COc1cccc(OC)c1C(=O)Nc1ccc(S(=O)(=O)Nc2cc(C)nc(C)n2)cc1	-1%	-2	17%	2.3	0.1%	2.1
CCC(C)[C@@H](C(=O)NCC1CCC(C(=O)O)CC1)n1nnc2ccccc2c1=O (some centres undefined)	6%	-10	15%	-0.3	-3.8%	-0.9
COc1ccccc1-c1cc(C(=O)Nc2cc(C)on2)no1	22%	0	-44%[inhibitor]	-0.6	?	5.3
Cc1ccc(S(=O)(=O)N2CCOCC2)cc1NC(=O)CSc1ccccn1	11%	2	?	-0.5	.	0.9
COc1cc(CNCc2cccc3ccccc23)cc(OC)c1	50µM*	8	-13%	-0.3	2.2%	-1.7
CCN1CCN(c2ncnc3c2cnn3-c2ccc(C)c(Cl)c2)CC1	.	-13	.	-0.5	-6.4%	.
CCSc1ccccc1C(=O)Nc1nc2ccccc2c(=O)[nH]1	-3%	4	-13%[15.4 µM]	-0.8	.	-1.6

The list continues:
SMILES	gsp antag	TRPML1 blocker	gsp agonist	TRPML1 ag	ClpP mod	Menin-MLL FL inh
COc1cc([N+](=O)[O-])ccc1NC(=O)N1CCN(c2cc(-c3noc(C)n3)ccc2C)CC1	.	-1	.	1.6	1.2%	.
COc1ccccc1/C=C1\SC(=S)N(Nc2nc(C)cc(C)n2)C1=O	5%	-2	-20%	-0.1	1.9%	11
Cc1c(N2C(=O)c3ccccc3C2=O)c(=O)n(-c2ccccc2)n1C	8%	0	-24%	-0.6	-2.9%	1.4
CCCCn1c(N)c(N(Cc2ccccc2OC)C(=O)C(C)Oc2ccc(Br)cc2)c(=O)[nH]c1=O (centres undefined)	-1%	26	-34%[inhibitor]	2.4	-2.1%	.
OCCNc1nc2ccccc2[nH]1	13%	-6	-3%	0.0	0.2%	6.6
CC(C)OC(=O)CSc1nnc(CNc2cccc(Cl)c2)n1C	-15%	-5	-1%	0.9	2.1%	3.5
Cc1ccc(NC(=O)CCNC(=O)c2ccccc2Cl)nc1	16%	10	4%	-0.1	-12%	.
C[C@@H]1CN([C@@H](C)CO)C(=O)CCCn2nncc2CO[C@H]1CN(C)Cc1cccc(O)c1	.	-13	26%	-0.5	-3.0%	.
CC(=O)/C(=C\N(C)C)Sc1ccc(C)cc1	-3%	-12	3%[15.4 µM]	1.5	.	0.3
C=CCN=C1CC(C)(C)C(C(=O)OC)C(O)=C1C(=O)CCC (centres undefined)	0%	-2	27%	2.3	.	2.8
CCCCC(CCCCl)C(=O)Nc1ccccc1 (centres undefined)	3%	-13	-4%[15.4 µM]	1.5	.	1.3
CC(C)N(CCn1c(SCC(=O)N2CC(=O)Nc3ccccc32)nc2ccccc2c1=O)C(C)C	.	-10	-5%[15.4 µM]	0.3	.	1.1
CCOC(=O)C1(C)CCCCCN1C(=O)c1ccccc1F (centres undefined)	.	10	.	-0.2	0.3%	.
CCN1C[C@@H]2[C@@H]3C(=O)N(Cc4ccccc4)C(=O)[C@@H]3[C@](C)(C1=O)N2C(=O)c1ccc(F)cc1	1%	20	-19%	-0.9	2.7%	.
CCN1C(=O)[C@H]2[C@@H](c3ccc(C)cc3)N3C(=O)N(c4ccc(C(F)(F)F)cc4)C(=O)[C@@]3(CC)[C@H]2C1=O	-2%	-2	.	0.3	-0.4%	-1.6
O=C(Nc1cccc(Cl)c1Cl)c1cc(S(=O)(=O)NCCc2ccccc2)ccc1F	-8%	-29&4	-17%	1.1&-0.4	47%&29%	0.0
O=C(CN1CCCC1c1cccs1)Nc1cccc(S(=O)(=O)N2CCCC2)c1 (centres undefined)	-33%	11	-40%[inhibitor]	0.9	-1.3%	.
CC(=O)c1ccc(N2CCN(C(=O)C(=O)c3cn(CC(=O)N4CCCCCC4)c4ccccc34)CC2)cc1	-24%	-1	8%[15.4 µM]	-0.5	-5.9%	.
Cc1cc(C)cc(NC(=S)N(C)C)c1	2%	20	-4%[15.4 µM]	-0.2	.	-2.2
N#Cc1ccc(-c2csc(NNC(=O)c3ccccc3)n2)cc1	1%	-7	-6%	0.2	-13%	2.1
COc1ccc(NC(=O)COc2ccc(C(=O)NCc3cccnc3)cc2OC)cc1	-9%	24	-3%	-0.1	1.5%	.
Cc1ccc(NC(=O)C2CCN(C(=O)NC3CCCCC3)CC2)cc1Cl	-1%	5	29%	-0.3	-0.1%	-2.3
Cc1nc(NC(=O)C2CC2)sc1C(=O)NC1CCCCC1	4%	-2	-1%[15.4 µM]	-0.4	.	4.1
COCCNC(=O)/C(=C/c1ccccc1Cl)c1ccccc1	1%	-10	-4%	2.7	-3.0%	0.8
CCCC(=O)NC(c1ccccc1)c1ccc2cccnc2c1O (centres undefined)	-9%	-5	-38%[inhibitor]	1.7	.	3.0

Later entries:
SMILES	gsp antag	TRPML1 blocker	gsp agonist	TRPML1 ag	ClpP mod	Menin-MLL FL inh
COC(=O)C(=C/C=C/c1cccnc1)C(=O)OC	.	-28	-2%[15.4 µM]	0.5	.	-8.2
Cc1onc(-c2ccccc2)c1C(=O)OCC(=O)N(C)c1c(N)n(Cc2ccccc2)c(=O)[nH]c1=O	-2%	-12	-3%	-1.0	0.5%	.
CCn1c(C(=O)NCc2ccccc2Cl)cc2sc(Cl)cc21	.	4	.	1.1	-1.4%	.
COc1ccc(OCC(O)CN2CCC(CN3C(=O)c4cccc5cccc(c45)C3=O)CC2)cc1 (centres undefined)	0%	-4	-1%[15.4 µM]	0.8	.	5.7
CCCCc1nn2c(=O)cc(COC(=O)CNC(=O)COc3ccc(C)cc3)nc2s1	.	17	.	-0.3	-2.7%	.
Cc1ccc[n+](C(C)C(=O)c2ccc(Cl)cc2)c1 (centres undefined)	3%	8	-10%	-0.1	0.6%	-2.2

Structures from the list above containing fluorine:
SMILES	gsp antag	TRPML1 blocker	gsp agonist	TRPML1 ag	ClpP mod	Menin-MLL FL inh
CC1(C)C(=O)N(CC(=O)Nc2cccc(F)c2)c2ccc(S(=O)(=O)N3CCCCC3)cc21	.	6	.	0.5	0.8%	.
CS/C(=C\[N+](=O)[O-])Nc1ccc(F)cc1	35%	-5	-41%[inhibitor]	-0.7	0.2%	0.6
O=C(Nc1ccc(F)cc1F)c1ccc2c(=O)n3c(nc2c1)CCCCC3	.	3	.	1.6	-6.9%	.
Cc1ccc(NC(=O)Cc2nc(COC(=O)c3c(F)cccc3Cl)cs2)cc1	-17%	-6	23%[15.4 µM]	1.8	.	.
CCOC(=O)C1(C)CCCCCN1C(=O)c1ccccc1F (centres undefined)	.	10	.	-0.2	0.3%	.
CCN1C[C@@H]2[C@@H]3C(=O)N(Cc4ccccc4)C(=O)[C@@H]3[C@](C)(C1=O)N2C(=O)c1ccc(F)cc1	1%	20	-19%	-0.9	2.7%	.
CCN1C(=O)[C@H]2[C@@H](c3ccc(C)cc3)N3C(=O)N(c4ccc(C(F)(F)F)cc4)C(=O)[C@@]3(CC)[C@H]2C1=O	-2%	-2	.	0.3	-0.4%	-1.6
O=C(Nc1cccc(Cl)c1Cl)c1cc(S(=O)(=O)NCCc2ccccc2)ccc1F	-8%	-29&4	-17%	1.1&-0.4	47%&29%	0.0

From PubChem
